Source: PubChem BioAssay (several laboratories)
UCH37 inh = blocks the human deubiquitinase UCH37; 0.33% of 330,000 active; Q9Y5K5; purified proteasome/UCH37, Ub-AMC cleavage fluorescence; inhibition, % (no concentration beside the values);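 active means mean of two replicates above 20%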;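 further: 0% = compound-free wells with enzyme and 100% = wells lacking proteasome; stock transfer was 100 nL into about 20 µL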
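system = Proteasome-associated human UCH37 deubiquitinase | amount = 0.15 nM proteasome as dispensed | medium = pH 7.4 Tris-HCl (50 mM) with ovalbumin, ATP-MgCl2, DTT | incubation = 30 min preincubation with enzyme, 25 min cleavage at room temperature | detection = AMC fluorescence 355/460 nm | read-out basis = percent inhibition | controls = no-proteasome and no-compound wells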
LANA-H2A inh = blocks KSHV LANA binding to histone H2A/H2B. Q9QR71. cell-free LANA-H2A/H2B peptide, fluorescence polarization. inhibition, % (test concentration not listed). 0.6% of 320,000 active. AID 2629; in the data active means inhibition mostly above about 10%, no sharp cut-off; inactive means mostly below about 6.7%;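 further: stock transfer was 7.5 nL into about 10 µL; 0% = median of vehicle wells and 100% = median of positive control wells; one replicate is shown; the record names a cut of 25% in any replicate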
Beta2AR agonist = human beta-2 adrenergic receptor agonism by FAP | P07550 | response, % (test concentration not listed) | 0.43% of 340,000 active | Am2.2-beta2AR cells, FAP receptor internalization, flow cytometry; reference of the scale not given here;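 active means response above a set limit, near 3 SD of response in nonfluorescent compounds, cut at about 42% in these data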;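 further: stock transfer was 100 nL into about 11 µL; a reference agonist was the positive control; negative values mostly stem from fluorescent compounds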
Target sequence (P07550 whole entry, looked up): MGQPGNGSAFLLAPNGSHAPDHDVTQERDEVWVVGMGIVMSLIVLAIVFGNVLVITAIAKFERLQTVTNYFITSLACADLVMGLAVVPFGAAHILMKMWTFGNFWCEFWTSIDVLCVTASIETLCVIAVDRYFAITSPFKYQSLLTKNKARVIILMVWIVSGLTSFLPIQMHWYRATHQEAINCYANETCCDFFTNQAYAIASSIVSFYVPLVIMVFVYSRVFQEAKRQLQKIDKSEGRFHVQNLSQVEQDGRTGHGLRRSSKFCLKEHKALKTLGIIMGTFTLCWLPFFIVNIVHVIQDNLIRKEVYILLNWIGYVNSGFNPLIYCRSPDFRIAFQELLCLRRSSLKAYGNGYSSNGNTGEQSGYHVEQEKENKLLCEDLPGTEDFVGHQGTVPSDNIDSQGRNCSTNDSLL
ALR inh = inhibitors of human sulfhydryl oxidase ALR; purified ALR, DTT oxidation, H2O2 HRP-luminol luminescence; AID 485317; 3.8% of 290,000 active; P55789; inhibition, % (test concentration not listed);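 active means mean and each replicate at 75% or more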;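 further: stock transfer was 7.5 nL into about 7.5 µL; 0% = neutral wells and 100% = wells with inactivated enzyme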
FGF22 binding = binders of recombinant human FGF22 by thermal shift. AID 651658. calls only at 9.99 µM. SYPRO orange fluorescence; percent of sucrose octasulfate shift, DMSO zero. Q9HCT0. 1.5% of 340,000 active;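 active means melting point raised past a set limit in the mean and every replicate; three in four hits are not shown here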
Target sequence (Q9HCT0 whole entry, looked up): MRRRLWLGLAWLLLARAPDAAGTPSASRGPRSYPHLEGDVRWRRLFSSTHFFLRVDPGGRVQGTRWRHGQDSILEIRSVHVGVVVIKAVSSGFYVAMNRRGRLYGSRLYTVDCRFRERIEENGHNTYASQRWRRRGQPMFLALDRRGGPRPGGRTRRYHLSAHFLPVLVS
Ecoli growth = E. coli growth inhibition; OD600 absorbance (concentration not given with the values); 0.21% of 330,000 active; AID 1053175; Escherichia coli growth, OD600, 23 h; active compounds read low;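 active means OD600 absorbance below the run mean of sample wells minus 3.6 SD, in any replicate, cut at about 0.56 in these data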;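 further: stock transfer was 300 nL into about 60 µL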
HNF4A DNA FP = change in binding of human HNF4 alpha to DNA | HNF4a-FITC DNA binding, fluorescence polarization, 1 h | activity change, % at 10 µM | P41235 | 0.3% of 360,000 active; in the data active means activity change above about 30%, passing the limit was not always enough;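 further: controls were the assay level and a saturating level of protein; the project sought stronger binding though the title names inhibitors; some compounds called inactive have numbers as strong as hits; positive values seem to mean higher polarization but the record does not say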
Target sequence (P41235 whole entry, looked up): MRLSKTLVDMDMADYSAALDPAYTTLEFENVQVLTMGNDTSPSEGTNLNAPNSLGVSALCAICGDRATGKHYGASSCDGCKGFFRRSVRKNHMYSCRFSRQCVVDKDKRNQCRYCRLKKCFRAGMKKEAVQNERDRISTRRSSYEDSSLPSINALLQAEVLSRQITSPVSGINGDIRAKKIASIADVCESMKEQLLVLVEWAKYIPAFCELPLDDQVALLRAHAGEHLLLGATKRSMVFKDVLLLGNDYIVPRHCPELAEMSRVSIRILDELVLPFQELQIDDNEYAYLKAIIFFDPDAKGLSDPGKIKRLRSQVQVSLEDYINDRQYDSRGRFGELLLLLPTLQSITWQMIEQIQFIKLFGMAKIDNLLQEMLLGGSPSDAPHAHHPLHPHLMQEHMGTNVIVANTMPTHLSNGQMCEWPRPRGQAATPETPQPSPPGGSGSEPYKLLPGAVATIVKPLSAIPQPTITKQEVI
* hit, by the source's call; i = inactive; . = not tested or not shown; + = active, no number.

Molecule	UCH37 inh	HNF4A DNA FP	Beta2AR agonist	LANA-H2A inh	Ecoli growth	FGF22 binding	ALR inh
O=C(O)CNc1nc(-c2ccccc2)nc2ccccc12	0.3	3.5	2.2	4.4	0.701	i	-2.5
FC(F)(F)C1=Nc2cccc3cccc(c23)N1	56.9*	3.1	81.6*	.	0.7	i	.
Cc1ccc(-c2nn(-c3ccccc3)cc2CO)o1	-1.4	-0.1	-9.6	4.5	0.689	.	9.7
CC1(C)OC(=O)C(=NNc2ccc(Br)cc2)C(=O)O1	6.4	1.2	0.2	-2.1	0.712	.	-3.2
CCOc1ccc(NC(=O)CCS(=O)(=O)c2ccc3c(c2)CCCN3C(=O)CC)cc1	0.9	2.2	6.3	1.0	0.688	.	-6.4
Nc1nonc1-n1nnc(C(=O)N/N=C/c2cccs2)c1-c1ccc2c(c1)OCO2	.	-4.1	9.6	0.7	.	i	1.4
COc1ccc(NC(=O)C2(N(CC(C)C)C(=O)Cn3nnnc3N)CCCCC2)cc1	-1.5	-3.4	26.2	-2.3	0.685	.	2.0
COc1ccc2c(CC(=O)OCC(=O)Nc3ccccc3[N+](=O)[O-])coc2c1	3.4	-1.6	16.0	-1.0	0.714	i	-18.1
Cc1c(Cl)cccc1NC(=O)CCN1C(=O)C2CC=CCC2C1=O (centres undefined)	1.0	3.5	0.2	0.3	0.705	i	-3.9
CCN(CC(=O)Nc1ccc(NC(C)=O)cc1)C(=O)c1ccccc1SCc1c(C)noc1C	2.4	-7.9	-0.3	-1.8	0.645	i	-0.9
O=C(c1cc(Cl)ccc1Cl)N1CCc2ccccc21	.	-4.2	3.3	8.7	.	i	-4.3
CC(C)(C)CC(C)(C)N1CNC(=S)NC1	2.2	4.0	-1.8	4.8	0.691	i	-3.4
COCCN(C(=O)C(C)N1C(=O)c2ccccc2C1=O)c1c(N)n(CC(C)C)c(=O)[nH]c1=O (centres undefined)	2.0	-3.3	0.6	.	0.667	i	.
O=C(Cn1ccn(-c2ccc(F)c(F)c2)c(=O)c1=O)NCCc1ccccc1	3.0	-3.4	-2.0	11.3	0.688	i	-5.2
CC(C)NS(=O)(=O)c1ccc(OCC(=O)N2CCN(c3ccccc3)CC2)cc1	4.9	-1.9	6.4	1.9	0.689	i	28.6
O=C1c2ccccc2C(=O)C1c1ccc(Br)cc1	2.1	3.1	13.9	0.5	0.635	i	1.8
COCCn1c(SCC(=O)Nc2ccccc2)nnc1-c1ccoc1C	0.1	4.2	4.8	2.1	0.654	i	8.6
CC(=O)Oc1ccc(C(=O)Nc2ccccc2C(=O)N2CCCCC2)cc1	0.5	-2.6	5.7	3.0	0.695	+	39.3
OC1(c2cccc(F)c2)CCN(Cc2ccncc2)CC1	0.6	-2.7	0.6	2.0	0.689	.	-11.6
CC1(C)OC(=O)C(=NNc2ccccc2[N+](=O)[O-])C(=O)O1	10.9	-2.7	9.6	-6.9	0.632	i	-15.7
Oc1c(Br)cc(Br)cc1C=Nc1cccnc1	.	-25.4	10.3	-1.8	.	i	.
Cc1onc(-c2ccccc2Cl)c1C(=O)NCc1ccccn1	1.6	2.6	-7.5	6.4	0.725	.	-6.7
CCOC(=O)CNS(=O)(=O)c1ccc(S(=O)(=O)NC2CC2)cc1	5.7	-0.4	5.3	-0.9	0.692	i	.
CC(=O)c1cccc(NC(=O)c2cccc(NC(=O)c3ccco3)c2)c1	4.4	3.4	-3.6	0.0	0.683	i	-18.1
Cc1sc2nc(C3CC3)nc(N3CCN(S(=O)(=O)c4ccc(F)cc4)CC3)c2c1C	5.7	3.8	8.3	4.8	0.711	.	-5.7
COc1cc(NC(=O)c2ccc(OC)c([N+](=O)[O-])c2)ccc1NC(=O)c1cccs1	0.1	-3.2	-15.9	.	0.653	.	.
O=C(COc1ccc(/C=N/NC(=O)c2ccccc2Br)cc1)Nc1ccccc1	.	-0.9	-2.5	-4.7	.	i	-4.0
O=C(CN1C(=O)CCS(=O)(=O)c2ccccc21)NCc1ccc(F)cc1	0.3	-1.5	-1.3	3.1	0.69	.	-0.6
CCn1nc(C)c(CN2CCCCC2C(=O)Nc2ccc(Oc3cccnc3)cc2)c1C (centres undefined)	0.1	4.0	-23.9	-3.4	0.676	.	-10.5
O=C(COC(=O)c1ccc(NS(=O)(=O)c2cccs2)cc1O)Nc1nc2ccccc2s1	.	-1.3	7.8	-2.8	.	i	.
O=S1(=O)c2ccccc2OC(COCc2ccccc2)CN1C1CC1 (centres undefined)	2.7	-0.7	-3.5	.	0.701	i	.
Cc1ccc(C(=O)N=c2sccn2C)cc1S(=O)(=O)N1CCOCC1	7.5	37.3*	-19.2	1.9	0.707	i	16.7
Cc1ccc(S(=O)(=O)Nc2nc3ccc(S(C)(=O)=O)cc3s2)cc1	0.9	2.0	1.9	-7.9	0.699	.	-2.7
O=C(Nc1ccccc1)N1CCc2c([nH]c3ccccc23)C1C(F)(F)F (centres undefined)	-1.7	-1.9	16.7	-5.1	0.665	i	0.3
CC(C)NC(=O)CN(c1cccc([N+](=O)[O-])c1)S(=O)(=O)c1ccccc1	2.4	-2.2	9.8	-5.7	0.709	.	-7.7
CCOC(=O)c1cccc(NC(=O)CCS(=O)(=O)c2cccs2)c1	-1.5	2.4	-3.8	2.9	0.691	.	-22.4
O=C(Cn1cccn1)N1CCCC(N2CCN(Cc3ccc4c(c3)OCO4)CC2)C1 (centres undefined)	.	4.0	5.2	.	.	i	-9.6
COc1ccc(C(=O)Nc2ccnc(-c3cccnc3)n2)cc1	0.2	2.2	-8.1	3.2	0.659	i	-15.6
CC(/C=N/NC(=O)CSc1ccccn1)=C\c1ccc(C(C)C)cc1	.	-1.2	1.6	-0.3	.	i	-1.4
COc1cccc(/C=C/C(=O)Nc2ccc3c(c2)OCCO3)c1OC	5.1	-1.0	2.5	2.9	0.692	.	-2.0
O=[N+]([O-])c1cc(Cl)cc(/C=N/NC(=S)Nc2ccc(S(=O)(=O)N3CCOCC3)cc2)c1O	.	2.4	18.2	-2.9	.	i	9.4
CC(=O)c1ccc(NC(=S)N2CCN(c3cccc(Cl)c3)CC2)cc1	1.1	3.0	-7.4	-0.5	0.727	i	-13.9
COc1ccc(C2=NN(C(=O)COc3ncnc4ccccc34)C(c3ccco3)C2)cc1 (centres undefined)	0.8	8.1	5.8	3.3	0.72	i	-9.4
COc1cc(NC(=O)CSc2ncnc3c2cnn3Cc2ccccc2)cc(OC)c1	2.9	1.1	-7.8	0.6	0.703	.	-0.7
CCOC(=O)c1cnc2c(c(C3CC3)nn2C)c1N1CCOCC1	5.3	-4.1	-15.9	-5.6	0.725	i	-8.8
Cc1c(NC(=O)c2cccs2)cccc1[N+](=O)[O-]	0.9	2.0	13.5	-16.5	0.672	i	0.1
C=CC1=C(C(=O)O)N2C(=O)[C@@H](NC(=O)/C(=N/OCC(=O)O)c3csc(N)n3)[C@H]2SC1	.	-87.5	12.4	2.1	.	i	-19.9
CCOC(=O)c1c(S(=O)(=O)Nc2ccccn2)c(C)n(C)c1C	1.7	-0.3	4.0	2.5	0.722	i	-0.1
CCc1ccccc1NC(=O)CN(C)C(=O)Cn1cc(C(F)(F)F)cc(Cl)c1=O	1.6	3.4	4.3	-5.0	0.696	i	-1.5
O=C(O)CNC(=O)C(CS)Cc1ccccc1 (centres undefined)	1.4	-7.0	8.5	-9.4	0.675	i	0.3

Remaining list, next part.
Molecule	UCH37 inh	HNF4A DNA FP	Beta2AR agonist	LANA-H2A inh	Ecoli growth	FGF22 binding	ALR inh
Cc1ccc(S(=O)(=O)N2CCC(C)CC2)cc1[N+](=O)[O-]	-0.4	-0.4	0.5	.	0.692	i	.
O=C(CNC(c1ccccc1)c1ccccc1)Nc1ccc(F)cc1	4.2	-2.0	4.5	4.9	0.694	.	48.0
CCN(CC)CCNC(=O)c1ccc(NC(=O)c2ccc(S(=O)(=O)N3CCCC3)cc2)cc1	.	-0.7	1.8	.	.	i	.
COC(=O)CC1(C(=O)OC)Oc2ccc(Br)cc2C(=O)N1c1ccc(Br)cc1Cl (centres undefined)	-0.9	-2.1	-11.1	1.9	0.721	i	-4.9
C=CCn1c(O)c(C(CC)=NCCN2CCOCC2)c(=O)[nH]c1=O	6.4	-0.9	8.5	5.6	0.662	.	-22.3
COC(=O)Cc1nc(NC(=O)c2cccs2)sc1C	2.7	7.9	-7.6	3.9	0.697	.	-2.1
Cc1ccccc1Nc1nc(N)nc(CSc2nnnn2-c2ccccc2)n1	1.3	0.6	-10.5	3.3	0.72	.	6.1
O=C(c1ccco1)N1CCCN(Cc2cn[nH]c2-c2ccc(-c3ccccc3)cc2)CC1	4.2	2.0	-4.9	-1.1	0.681	i	-10.0
COc1cc2[nH]c3c(=O)n(CCN4CCOCC4)cnc3c2cc1OC	-104.4	-1.5	-4.5	-8.5	0.695	i	-11.3
O=C(O)c1cccnc1SCC(=O)C12CC3CC(CC(C3)C1)C2	1.7	-2.2	2.2	-1.3	0.709	i	0.4
COc1cc(NC(=O)c2onc(C)c2Cl)c(OC)cc1Cl	-24.3	4.6	4.8	1.3	0.714	i	-11.4
CCCCCn1nc(C(=O)N(CC(C)C)c2c(N)n(CCCC)c(=O)[nH]c2=O)c2ccccc2c1=O	3.8	-0.1	14.0	-4.0	0.663	i	1.6
O=C(NCCOc1ccc(F)cc1)C1CCC(=O)N(CCCN2CCCC2=O)C1 (centres undefined)	3.1	2.2	-2.4	-3.3	0.699	i	-1.1
COC(=O)C1CCN(C(=O)c2oc3c(Cl)cc(C)cc3c2C)CC1	3.2	0.1	5.3	-7.1	0.695	i	0.3
CCCS(=O)(=O)N1CCCC(C(=O)Oc2ccc(Cl)cc2)C1 (centres undefined)	-0.2	3.8	-207.3	-3.4	0.671	i	-15.3
CC(C)(C)CC(C)(C)N=C1NS(=O)(=O)c2cc([N+](=O)[O-])ccc21	2.8	-2.6	-7.7	-2.7	0.703	i	-52.9
COC(=O)CCC(=O)Nc1cccc(C(=O)Nc2cccc(Cl)c2)c1	-0.7	0.0	3.7	-1.6	0.712	.	-8.8
CCOCC(=O)Nc1ccc2c(c1)OCCO2	-0.5	0.4	-1.9	1.6	0.729	.	-7.2
O=S(=O)(NC1CC1)c1ccc(S(=O)(=O)N(Cc2ccccn2)C2CCCC2)cc1	2.9	1.5	3.4	2.5	0.688	.	-24.6
O=C(CCn1nc(-c2ccccc2)c2ccccc2c1=O)NN1CCOCC1	1.2	-3.3	-2.6	-1.2	0.675	i	-2.1
O=C(NCc1cccnc1)C1CCN(S(=O)(=O)c2cccc(C(F)(F)F)c2)CC1	2.2	-1.5	-0.8	1.5	0.682	i	-2.9
CSC1=N/C(=C\C=C\c2cccs2)C(=O)S1	3.1	17.5	5.1	-1.8	0.681	.	-2.9
Cc1cccc(N=Nc2c(C)c(C#N)c(O)[nH]c2=O)c1	6.0	4.2	-6.8	-3.2	0.709	i	-3.8
COc1ccc(NC(=O)Nc2nnc(C(C)(C)C)s2)cc1	2.2	1.8	-3.4	-1.2	0.659	i	-11.1
Cc1c(/C=N/O)c2ccccn2c1C=O	.	0.5	7.0	3.0	.	i	43.5
CCOc1ccc(NC(=O)c2cc3ccccc3cc2OC)cc1	-2.1	0.1	2.2	-3.4	0.659	.	-1.0
O=C(NCCN1CCOCC1)c1cc(-c2ccc(Cl)s2)nc2ccccc12	-280.1	2.5	-14.8	-0.6	0.687	i	.
COc1ccc(/C=N/Nc2cc(N(C)C)nc(N(C)C)n2)cc1	.	6.4	13.2	1.5	.	i	2.0
COC(=O)N/N=C/c1ccc([N+](=O)[O-])s1	.	0.1	-2.7	0.3	.	.	-53.4
COc1ccc(Nc2nnc(SCC(=O)c3cc(C)n(CC4CCCO4)c3C)s2)cc1 (centres undefined)	7.5	5.5	15.3	-0.2	0.751	.	-23.0

Only part of the results is shown. The share of hits here may be higher or lower than overall.
